From PubChem
Bfl-1 A1 inh: inhibitors of the anti-apoptotic protein A1, read as caspase activation; MEF A1-2A-BIM cells, Caspase-Glo 3/7 luminescence, 3 h; percent of clofoctol response, vehicle zero; caspase activation, % (no concentration beside the values); actives 0.066% (n = 330,000);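 active = over half of replicate activation scores above 10%, or exactly half above 10 with the replicate mean above 10; inconclusive = replicate mean below 10 yet half the replicates above 10; inactive = over half of replicates below 10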;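 note: wells of about 30 µL received 50 nL stock; many hits fall short of the cut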
Beta apoptosis: blocks beta cell apoptosis; INS-1E cytokine-induced death, ATP luminescence, 48 h; percent of positive-control rescue, neutral wells zero; protection from apoptosis, % (test concentration not listed); actives 0.8% (n = 300,000); AID 435005;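 active = all replicates at 75% or more, or half of them and the mean; inconclusive = half reach 75% but not the mean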;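 note: 0% = cytokine-treated negative control wells and 100% = positive control rescue; higher means more ATP so stronger rescue from cytokine killing; wells of about 40 µL received 100 nL stock; the first replicate is given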
RanGTP-Impb inh: inhibitors of RanGTP-importin-beta interaction, primary screen, biochemical, FRET, CFP-Ran, YFP-importin-beta, homogeneous; cell-free CFP-Ran/YFP-importin-beta FRET ratio; inhibition, % (concentration not given with the values); actives 1.1% (n = 300,000);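 active = most replicates above 15%; inconclusive = exactly half above 15%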;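 note: 0% = DMSO wells and 100% = Ran loaded with GDP instead of GTP; wells of about 40 µL received 100 nL stock; the first replicate is given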
Beta2AR agonist: activates human beta-2 adrenergic receptor causing internalization. AID 504454. P07550. response, % (no concentration beside the values). Am2.2-beta2AR cells, FAP receptor internalization, flow cytometry; reference of the scale not given here. actives 0.43% (n = 340,000);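 active = response above a set limit, near 3 SD of response in nonfluorescent compounds, cut at about 42% in these data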;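 note: stock transfer was 100 nL into about 11 µL; a reference agonist was the positive control; negative values mostly stem from fluorescent compounds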
Target sequence (P07550 whole entry, looked up): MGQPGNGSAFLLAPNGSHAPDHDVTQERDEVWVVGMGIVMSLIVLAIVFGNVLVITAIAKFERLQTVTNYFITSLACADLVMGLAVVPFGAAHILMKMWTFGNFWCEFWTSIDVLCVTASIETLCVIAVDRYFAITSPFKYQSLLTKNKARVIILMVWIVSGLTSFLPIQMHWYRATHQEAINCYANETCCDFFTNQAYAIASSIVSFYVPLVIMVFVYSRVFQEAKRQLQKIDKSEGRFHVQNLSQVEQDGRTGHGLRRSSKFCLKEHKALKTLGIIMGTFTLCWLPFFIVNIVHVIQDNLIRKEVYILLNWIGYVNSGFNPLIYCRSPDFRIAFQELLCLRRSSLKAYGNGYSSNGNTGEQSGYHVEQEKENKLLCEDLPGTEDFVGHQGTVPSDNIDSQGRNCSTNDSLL
UCH37 DUB inh: inhibitors of human deubiquitinating enzyme UCH37; Q9Y5K5; purified proteasome/UCH37, Ub-AMC cleavage fluorescence; inhibition, % (test concentration not listed); actives 0.33% (n = 330,000); AID 588478;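 active = mean of two replicates above 20%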;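 note: 0% = compound-free wells with enzyme and 100% = wells lacking proteasome; stock transfer was 100 nL into about 20 µL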
Target sequence (Q9Y5K5 whole entry, looked up): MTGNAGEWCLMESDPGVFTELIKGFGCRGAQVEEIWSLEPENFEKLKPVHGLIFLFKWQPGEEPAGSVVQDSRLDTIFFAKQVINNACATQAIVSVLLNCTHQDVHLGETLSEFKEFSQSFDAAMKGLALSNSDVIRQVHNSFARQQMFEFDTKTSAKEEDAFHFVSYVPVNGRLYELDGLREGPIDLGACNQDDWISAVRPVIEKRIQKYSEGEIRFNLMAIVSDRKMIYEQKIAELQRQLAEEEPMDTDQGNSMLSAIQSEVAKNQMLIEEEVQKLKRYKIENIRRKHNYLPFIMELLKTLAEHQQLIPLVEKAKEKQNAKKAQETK
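System: Proteasome-associated human UCH37 deubiquitinase; Input: 0.15 nM proteasome in added enzyme buffer; Also added: Ub-AMC substrate from 1 µM stock; Incubation: 30 min compound-proteasome preincubation then 25 min substrate reaction, room temperature; Detection: fluorescence, ex 355 nm, em 460 nm; Read-out: % inhibition of Ub-AMC cleavage fluorescence; Benchmarks: no-proteasome and no-compound wells.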
Calb FLC: C. albicans growth modulation with fluconazole; C. albicans CaCi-2 (fluconazole-resistant clinical isolate) + fluconazole, Alamar Blue growth, 48 h; growth inhibition, % (no concentration beside the values); actives 0.57% (n = 300,000);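 active = most replicates above 75%; inconclusive = exactly half above 75%; inactive = most below 75%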;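 note: all wells also contain fluconazole at 8 µg/ml as a sub-toxic cotreatment; 0% = median of DMSO wells and 100% = median of geldanamycin control wells; wells of about 8 µL received 7.5 nL stock; the first replicate is given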
T cruzi inh: blocks replication of Trypanosoma cruzi. T. cruzi beta-gal in NIH3T3, luminescence, 90 h. inhibition, % (test concentration not listed). actives 1.4% (n = 300,000). AID 1885;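 active = mean inhibition across valid replicates above about 55%, limit read from the data; inconclusive = mean below that limit but half or more replicates reach it; inactive = mean below it, under half of replicates reach it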;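 note: signal also drops with host cell toxicity which is not excluded here; 0% = plate median of DMSO wells and 100% = zero luminescence signal; higher percent means less beta-gal luminescence so fewer parasites; stock transfer was 50 nL into about 50 µL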
LANA-H2A inh: blocks KSHV LANA binding to histone H2A/H2B; Q9QR71; inhibition, % (test concentration not listed); actives 0.6% (n = 320,000); AID 2629; cell-free LANA-H2A/H2B peptide, fluorescence polarization; in the data active = inhibition mostly above about 10%, no sharp cut-off; inactive = mostly below about 6.7%;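 note: stock transfer was 7.5 nL into about 10 µL; 0% = median of vehicle wells and 100% = median of positive control wells; one replicate is shown; the record names a cut of 25% in any replicate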
The depositor's hits bear a star; ? = inconclusive; . = not tested or not shown.

Results follow in this order: Bfl-1 A1 inh	Beta apoptosis	RanGTP-Impb inh	Beta2AR agonist	UCH37 DUB inh	Calb FLC	T cruzi inh	LANA-H2A inh
COc1ccc(COC(=O)c2ccc(S(=O)(=O)N3CCCCC3)cc2)cc1OC
 : 0.0	1	.	-7	4.7	.	.	3.9
O=C(Nc1ccc2c(c1)OCO2)c1cc(C2CC2)on1
 : -7.4	7	?	0	2.1	0	-8	14
CCOc1ccc(C(=O)NCC(=O)NC(C)CCc2ccccc2)cc1OCC (stereo not given)
 : -0.5	-3	-0.1	-3	3.5	-3	16	6.7
CC1CCN(C(=O)c2ccccc2NC(=O)c2cccc(S(=O)(=O)N(C)C)c2)CC1
 : 0.8	-4	3.3	-5	5.8	0	-4	-6.5
O=C(Nc1nnc(C2CC2)s1)c1ccco1
 : 0.6	1	-5.5	4	0.8	-8	-2	-3.2
CCCCc1nc2cc(C(=O)N(C)C3CCOCC3)ccc2o1
 : -3.6	-5	6.3	-2	2.8	-13	-5	-1.1
O=C(Cc1ccc([N+](=O)[O-])cc1)OCc1c(F)cccc1Cl
 : 0.1	1	0.8	0	0.0	-1	-6	4.3
Cc1ccc(CONC(=O)c2ccccc2)cc1
 : -4.1	-8	0.0	-3	2.9	-4	-6	0.1
COc1ccc(N2C(=NC(=O)CC3CCCCC3)SC3CS(=O)(=O)CC32)cc1 (stereo not given)
 : 1.2	6	-3.5	-5	4.1	7	-2	-9.9
CN(C)C(=S)Nc1ccc2c(c1)OCCO2
 : -0.1	-1	-1.3	-5	1.4	1	-13	1.1
Cc1noc(C(=O)Nc2ccc3c(c2)OCO3)c1Cl
 : -3.8	1	2.6	3	8.3	-1	-6	-4.2
CC12CCC(=O)N1C(C(=O)NCCN1C(=O)S/C(=C\c3ccccc3F)C1=O)CS2 (stereo not given)
 : -0.1	-6	6.0	0	6.1	-5	-5	0.1
O=c1cc(CSc2nnc(COc3cccc4ccccc34)o2)c2ccccc2[nH]1
 : -0.7	-3	1.2	11	2.4	2	19	1.1
Nn1c(SC/C=C/c2ccccc2)nnc1-c1cccnc1
 : 0.3	2	2.5	4	-0.7	-13	-14	-5.4
CCC(=O)c1ccc(OCC(O)Cn2nc(C)c(C(C)=O)c2C)cc1 (stereo not given)
 : -0.4	-2	5.7	-8	4.0	15	-7	-2.3
Cc1sc2ncn3c(C)nnc3c2c1C
 : 1.8	-5	7.5	-8	3.8	-9	-8	-2.1
O=C(Nc1nnc(-c2ccncc2)o1)c1ccccc1
 : -1.0	3	0.4	-5	3.5	3	-19	-10
Cc1cccc(-n2cnc(C(=O)O)c2)n1
 : -0.4	-7	5.5	0	-2.5	-10	-4	-8.6
COc1cccc(NC(=O)C(NC2CCCC2)c2ccccc2)c1 (stereo not given)
 : 0.0	0	0.4	-4	0.9	0	5	3.1
COCCOC1CCN(C(=O)C2CCC(=O)N(CCc3ccc(OC)cc3)C2)CC1 (stereo not given)
 : ?	3	?	5	2.3	2	3	-1.6
COc1cccc(S(=O)(=O)N2CCN(C(=O)c3ccco3)CC2)c1
 : 0.9	-6	7.0	-10	-0.8	5	-4	0.2
CN(C)C(=O)c1cc(-c2ccccc2)no1
 : -2.1	0	3.2	4	2.2	-4	-6	0.4
CC(=O)c1ccc(S(=O)(=O)Nc2ccc(C(=O)NCC(c3ccccc3)N(C)C)cc2)cc1 (stereo not given)
 : -0.7	3	-1.8	2	2.5	-5	-2	-6.3
CC(C)Oc1ccc(NC(N)=O)cc1
 : 0.0	-1	-0.7	9	1.1	7	-2	0.8
O=C1[C@H]2[C@H](C=CC[C@H]2C(=O)N2CCN(c3ccccc3)CC2)CCN1Cc1ccc(Cl)c(Cl)c1
 : 0.1	2	0.2	29	-0.5	12	-3	2.6
CC(=O)N1CCN(c2ccccc2NC(=O)c2cccc3c(Cl)cccc23)CC1
 : 0.2	5	0.5	3	4.2	3	7	-0.8
O=C(CSc1nc(-c2ccco2)cc(C(F)(F)F)n1)NCCCn1ccnc1
 : 0.1	-4	0.2	-18	2.9	-1	18	0.8
CC1(C)NC(=O)N(CC(O)CN2CCCCC2)C1=O (stereo not given)
 : -1.2	-4	1.0	3	3.8	6	4	-4.0
COc1ccc(N2CCN(C(=O)c3ccc(N4CCCCS4(=O)=O)cc3)CC2)cc1
 : -0.5	-5	5.7	-2	-0.8	0	-10	0.9
O=C(Nc1ccccc1O)c1nc(Cl)ccc1Cl
 : -0.1	-1	4.2	-10	1.1	-15	1	1.8
O=S1(=O)N=C(Nc2ccc(O)c(CN3CCCCC3)c2)c2ccccc21
 : -0.9	2	1.2	-3	5.2	-5	-62	6.4
COc1ccc(-c2noc(CSc3nc(N)c(-c4ccccc4)c(=O)[nH]3)n2)cc1OC
 : 0.0	4	-1.2	-5	6.4	-2	-4	-2.5
Cc1cc(NC(=O)COC(=O)c2ccccc2Cl)no1
 : 0.8	-7	.	8	-0.2	.	.	-5.4
c1ccc(-n2ncc3c2ncn2nc(CSc4nc5ccccc5s4)nc32)cc1
 : 0.7	.	.	-3	-36	.	.	0.7
CCN(CC(=O)NC1CCS(=O)(=O)C1)c1ccc(S(=O)(=O)N(CC)CC)cc1[N+](=O)[O-] (stereo not given)
 : 0.5	1	.	2	-1.7	.	.	-4.3
CCc1ccc(NC(=O)CN(c2cc(C)cc(C)c2)S(=O)(=O)c2c(C)[nH]c(=O)[nH]c2=O)cc1
 : 2.2	-5	21*	-4	2.1	0	11	-2.0
CCCCN1C(=O)C(=O)N(CC(=O)Nc2sc(CC)cc2C(=O)OCC)C1=O
 : -0.2	-2	-0.7	2	3.4	.	2	2.2
O=C(NCc1ccc(F)cc1)c1cc(S(=O)(=O)N2CCCCC2)ccc1Cl
 : 0.1	-7	.	3	1.7	.	.	79*
COc1ccccc1-c1nnc(SC2CCc3ccccc3NC2=O)s1 (stereo not given)
 : -0.2	6	1.6	-2	-7.0	2	22	3.9
CCc1ccccc1NC(=O)CN1CCN(C(=O)c2cccc(-n3cnnn3)c2)CC1
 : 0.0	6	.	7	3.3	.	.	0.5
Cc1cccc(N(C)c2ccc3cc(S(=O)(=O)N4CCCC4)ccc3n2)c1
 : -0.6	-2	8.1	1	-118	-12	-6	-1.7
COc1cc(OC)c(C2CC(=O)N3CN(c4ccc(C)cc4)CSC3=C2C#N)cc1OC (stereo not given)
 : -0.1	-7	-93	6	8.4	4	2	-0.4
Cc1ccc2c(=O)c(C(=O)NCc3cccs3)c[nH]c2c1
 : -0.8	.	4.0	-4	3.0	-13	-5	0.1
CCOC(=O)c1cccc(NC(=O)Nc2ccc(OCC)cc2)c1
 : 0.2	-1	-15	-3	0.2	39	20	-0.8
Cc1cccnc1NC(=O)c1c(O)c2ccccc2n(C)c1=O
 : -0.2	0	3.9	-12	3.9	4	-12	-1.2
COc1ccc(CCNC(=O)C(=O)c2c[nH]c3ccccc23)cc1OC
 : 1.0	-2	-0.3	-2	4.8	-9	-18	0.8
COc1ccc(S(=O)(=O)Nc2ccc3c(c2)CC(=O)N([C@@H](C)CO)C[C@H](C)[C@@H](CN(C)S(=O)(=O)c2ccc(F)cc2)O3)cc1
 : -0.9	1	.	0	-1.1	.	.	2.5
CC(=O)NC(c1ccco1)c1cc(F)c2cccnc2c1O (stereo not given)
 : 0.4	82*	.	6	-1.5	.	.	-1.2
CC(C)[C@H](NC(=O)OCc1ccccc1)C(=O)OCC(=O)Nc1ccc(N2CCOCC2)cc1
 : -0.1	10	-5.0	-3	0.0	-4	0	-1.3
CCC(=O)Nc1nonc1-c1nc2ccccc2n1CCC(C)C
 : -0.4	-19	1.0	7	5.1	-5	9	8.0
C=CCNc1ncnc2c1ncn2C1OC(CO)C(O)C1O (stereo not given)
 : -0.9	0	5.8	19	3.6	-6	-10	-1.6
Nc1ccc(C(=O)Nc2cccc(NC(=O)c3ccc(N)cc3)c2)cc1
 : -2.3	0	2.2	-1	2.6	-5	-2	4.0
CN(C)S(=O)(=O)c1cccc(NC(=O)c2cc3c(=O)n4ccccc4nc3s2)c1
 : 0.5	4	6.3	4	.	3	-6	2.4
CCC(CC)C(=O)NN(C(=O)c1ccncc1)C1CC(=O)N(c2ccccc2)C1=O (stereo not given)
 : -1.2	-2	7.4	5	5.0	1	-8	-0.3
COC(CNC(=O)c1cn(C)c2ccc(S(=O)(=O)N(C)C3CCCCC3)cc2c1=O)OC
 : -0.3	3	32	0	2.1	14	-2	-3.7
CC(C)C(=O)NNC(=O)CSc1nnnn1C(C)C
 : -0.2	-4	-2.4	7	-0.6	-21	-9	-2.8
CNC(=O)c1ccc(C)c(NC(=O)C2=C(C)OCCS2)c1
 : 0.1	-20	2.0	-4	3.4	5	-16	2.2
N#Cc1ccccc1S(=O)(=O)N1CCN(C(=O)CN2CCCC2c2cccs2)CC1 (stereo not given)
 : -0.3	3	.	10	-2.6	.	.	10
C/C(=N\Nc1cccc([N+](=O)[O-])c1)c1cc2ccccc2o1
 : 1.3	1	0.6	-2	.	2	25	-0.7
Cc1ccc(Cc2nnc3n(-c4cccc(C)c4)nc(C(=O)c4ccccc4)n3c2=O)cc1
 : 0.8	10	4.7	5	-0.5	28	17	-1.3

The listing continues:
Results follow in this order: Bfl-1 A1 inh	Beta apoptosis	RanGTP-Impb inh	Beta2AR agonist	UCH37 DUB inh	Calb FLC	T cruzi inh	LANA-H2A inh
CCC(=O)N1CCc2cc(S(=O)(=O)NCCC(=O)NCc3ccc(F)cc3)ccc21
 : 0.7	2	0.6	-20	-1.6	0	-7	7.5
COc1cccc(C(=O)NCC(=O)N/N=C/c2cccc(OC(=O)c3ccc([N+](=O)[O-])cc3)c2)c1
 : 0.5	-5	-2.4	2	.	0	-11	-1.9
O=C(CCn1cnc2ccccc2c1=O)Nc1cccc(Cl)c1Cl
 : -1.2	-2	7.9	-15	-1.3	6	-1	-3.7
CCN(c1ccccc1)S(=O)(=O)c1ccc(F)cc1
 : 0.3	6	2.9	-7	3.2	20	-4	6.4
Cc1ccc(OCC(=O)Nc2ccccc2Sc2ccc(Cl)cc2)c([N+](=O)[O-])n1
 : -0.5	3	0.2	-3	4.1	15	20	-2.6
COc1ccc(-c2onc3ccc(Br)cc23)cc1
 : 0.3	6	-7.9	-2	-2.9	-43	-4	-7.4
CS(=O)(=O)c1cccc(C(=O)Nc2ccccc2Cc2ccccc2)c1
 : 0.6	-2	-1.9	-7	0.5	3	-1	-2.0
CCOC(=O)Cc1csc(NC(=S)NC(=O)c2ccc(Cl)cc2)n1
 : 0.1	-3	0.9	4	4.0	2	-9	1.4
CCOC(=O)c1cnc2c(ccc3ccccc32)c1Cl
 : -1.0	-5	-2.7	-10	-3.4	-2	-7	-2.3
COC(=O)c1nc(-c2ccccc2)oc1N(C)C
 : -0.8	6	2.3	-1	-341	-3	-6	-3.0
Cc1c(CN2CCCC(C)C2)c(O)n(CCO)c(=O)c1C#N (stereo not given)
 : 0.3	2	-1.4	3	6.2	0	-17	0.6
CCCC(=O)Nc1ccc(C(=O)NCc2ccccc2Cl)cc1
 : -0.2	-3	?	3	-0.8	-7	6	-3.9
